# Source: PubChem
# Hep lipid drop: modulators of hepatic lipid droplet formation. AML12 mouse hepatocytes, oleate lipid droplets, BODIPY imaging. inhibition, % at 6.5 µM. hit rate 0.4% among 240,000. AID 1656;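 active = lipid droplet intensity inhibited by at least 50%, with more than 500 cells counted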
#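 material = mouse AML12 hepatocyte cell line, fixed after treatment | also added = 100 µM oleic acid challenge | doses = compound at 6.5 µM only | schedule = overnight exposure | technique = Image-based BODIPY and DAPI two-channel analysis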
# P. falciparum M1AAP: malaria alanyl aminopeptidase activity blockers – biochemical, fluorogenic H-Leu-NHMec substrate, 1536-well (AID 1445). recombinant M1AAP, H-Leu-NHMec fluorogenic kinetic assay; higher % means a stronger effect. inhibition, % at 30 µM, or IC50 in µM where a hit was titrated. hit rate 0.42% among 220,000;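 active = primary inhibition above the hit cutoff, then over 50% inhibition at one or more dose response concentrations, cut at about 23% in these data, passing the limit was not always enough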;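 also: plate controls were DMSO full reaction for no effect and no enzyme background for full effect; strong numbers were not always called active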
# TNAP activation fold: human TNAP enzyme activators, primary screen, biochemical, luminescent, no phosphate acceptor, uHTS (AID 1001); purified TNAP, luminescent activation assay, no phosphate acceptor; higher activation fold means a stronger effect; one-dose activation fold at 20 µM; EC50 in µM for titrated hits; hit rate 0.03% among 200,000; in the data active = activation fold from about 3, or a potency from the dose series; inactive = the rest, 99 in 100 with activation fold below about 1.6; also: many of its hits are not listed in these tables
# UTI89 phage lysis: inhibition of K1F phage lysis, E. coli UTI89, bacterial capsule biogenesis inhibitors, alamar blue (AID 488966); hit rate 0.02% among 340,000; inhibition, % at 100 µM, or IC50 in µM where a hit was titrated; E. coli UTI89 K1F phage lysis, alamar blue, 2 h; higher % means a stronger effect;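 active = phage lysis inhibition, versus mean bacterial control, above a set limit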;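 also: capsule biogenesis inhibitors block K1F phage lysis so surviving cells raise fluorescence; higher fluorescence means more inhibition of phage lysis; actives were called in the ten point dose series up to 300 µM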
# WT yeast gro inh: growth inhibition of WT yeast, mitochondrial fusion screen | mitochondrial fusion phenotypic screen, WT strain | inhibition, % at 10 µM | hit rate 2.1% among 190,000 | AID 1362; in the data active = inhibition above about 58%; tested in S. cerevisiae
# Myeloid diff 2: promotes myeloid progenitor differentiation; ER-HoxA9 myeloid progenitors, lysozyme-GFP differentiation, flow cytometry; calls only at 10 µM; hit rate 1% among 360,000;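 active = normalized GFP-positive differentiation at or above the plate's own cutoff, the solvent-only control mean plus 3 SD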;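 also: cells exposed to compound for four days before flow analysis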
# CSM14.1 death rescue: rescue of cells from ER stress-induced death, primary screen, 384-well, CSM14.1, thapsigargin, ATP luminescence (AID 1222); CSM14.1 thapsigargin-induced death rescue, ATP luminescence; higher % means a stronger effect; one-dose cellular ATP content (survival), % at 20 µM; EC50 in µM for titrated hits; 190,000 tested, under 10 active;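 active = EC50 below 50 µM in the dose-response confirmation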;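 also: death triggered by thapsigargin at about 15 µM added after 2 h compound pretreatment; cell ATP read after overnight thapsigargin exposure of roughly 18 to 22 hours; normalized against plate controls of thapsigargin alone and 5% DMSO vehicle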
# WT yeast gro inh mutant strain: second read-out of WT yeast gro inh, no call of its own (marks repeat the call); inhibition, %; mitochondrial fusion phenotypic screen, mutant strain inhibition
# Hep lipid drop cells 6.5 µM: further read-out of Hep lipid drop, marked with its call; cell count; measured here: cell count, cytotoxicity flag;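 cells counted across two imaged fields per well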
# Myeloid diff 2 GFP+ MAC1+ %: second read-out of Myeloid diff 2, no call of its own (marks repeat the call); GFP+ MAC1+ double positive, %; measured here: differentiation confirmed by MAC1 staining
# An asterisk follows results filed as active; i = inactive; . = not tested or not shown; + = active, no number; & = joins results of further samples; [ ] = remark or other dose. These rows are one share of the data (hit frequency here may not be typical).
SMILES,Hep lipid drop,P. falciparum M1AAP,TNAP activation fold,UTI89 phage lysis,WT yeast gro inh,WT yeast gro inh mutant strain,Myeloid diff 2,Myeloid diff 2 GFP+ MAC1+ %,CSM14.1 death rescue,others
CCOC(=O)/C=C1\NC(C)(C)Cc2cc(OC)c(O)cc21,.,9%,1,1.5%,-3,7,i,1.1,0.1%,
Cc1ccc(S(=O)(=O)n2nc(C)c(Br)c2C)c(C)c1C,.,4%,1.1,-0.2%,-4,22,i,1.1,-0.7%,
CCOC(=O)C1CCN(C(=O)C23CC4CC(CC(C4)C2)C3)CC1,.,6%,1.1,2.6%,4,-11,i,2.0,-0.9%,
COc1ccc(CCNc2cc(N3CCN(C(=O)c4ccccc4F)CC3)ccc2[N+](=O)[O-])cc1OC,.,-3%,0.9,-0.5%,15,3,.,.,2.0%,
N#CC1=C(N)Oc2c(oc(CO)cc2=O)C12C(=O)Nc1ccc(Cl)cc12 (stereo unspecified),.,9%,1.1,1.1%,-10,7,i,0.8,0.0%,
CCCOc1ccc(C2C(C(=O)c3ccco3)=C(O)C(=O)N2CCN2CCOCC2)cc1OC (stereo unspecified),.,9%,1.1,.,58*,-3.7*,.,.,-0.3%,
CC(C)c1ccc2c(c1)C(c1ccc(N3CCOCC3)cc1)=NNC(c1cccs1)=N2,.,12%,1.1,0.3%,40,-10,i,1.1,-0.2%,
COC(=O)CSc1nc(C)cc(C(F)(F)F)c1C#N,.,1%,0.9,0.1%,25,10,i,1.1,-0.9%,
Cc1ccc(SCc2nc(-c3cccnc3)no2)cc1,17,0%,1,-0.2%,-3,-10,i,0.6,-4.8%,Hep lipid drop cells 6.5 µM=747
Cc1ccc(-c2noc(CN(C(=O)C34CC5CC(CC(C5)C3)C4)C(C)C)n2)cc1,.,-1%,1,4.4%,10,-1,i,0.6,0.5%,
Cc1ccc(C(=O)C(OC(=O)CNC(=O)c2ccc(Cl)cc2)c2ccccc2)cc1 (stereo unspecified),.,6%,1,0.2%,17,1,i,0.7,-1.1%,
COc1cccc(SCc2noc(C(=O)NCC3CCCO3)c2C(=O)O)c1 (stereo unspecified),.,14%,1.1,-0.7%,-7,-7,i,1.9,-0.6%,
Cc1cccc(Cn2cnc3c(nnn3Cc3ccc(Cl)cc3)c2=O)c1,.,-3%,1.1,1.2%,7,6,i,9.3,0.2%,
O=C1CCCC2=C1C(c1ccc(Cl)cc1)C1C(=O)c3ccccc3C1=N2 (stereo unspecified),.,13%,0.8,0.2%,3,4,i,7.1,-0.4%,
CN1CCc2c(c3ccccc3n2Cc2ccccc2)C1,.,9%,0.7,4.9%&6.2%,3,5,i,6.5&2.2,-1.4%,
CCCSc1nc(SCC(=O)NCc2ccccc2)c2c3c(sc2n1)COC(C)(C)C3,.,6%,1.1,0.2%,6,0,i,0.7,2.7%,
Cc1occc1C(=O)NCc1ccccc1,.,6%,1.1,-2.0%,35,-5,.,.,0.1%,
c1ccc(Cn2nnc3c(N4CCc5ccccc5C4)ncnc32)cc1,.,5%,1,-0.8%,57,27,i,4.6,1.6%,
Cc1ccc(Nc2nnns2)cc1,.,12%,1.1,-0.4%,6,5,i,0.9,-2.0%,
Cc1nn(C)c(Oc2ccc(Cl)cc2)c1C(=O)Nc1ccc(F)cc1F,.,0%,1.1,-0.8%,-3,14,i,5.6,2.5%,
CCN(CC(=O)Nc1ccc(N2CCOCC2)cc1)Cc1nc2ccccc2c(=O)[nH]1,.,9%,1,0.4%,11,78,i,0.6,-0.9%,
CCCCOC(=O)Nc1cccc(C(=O)OCC)c1,.,7%,1,0.5%,73*,-3.0*,i,0.9,-1.7%,
COc1ccc(OC2C(=O)N(Cc3ccc4c(c3)OCO4)C2c2cccs2)cc1 (stereo unspecified),.,-3%,1.1,5.0%,0,-2,i,6.8,0.0%,
CCn1c(CC(=O)Nc2ccc(C)c(Cl)c2)nnc1SCc1ccc(Cl)c(Cl)c1,.,13%,1.1,0.2%,12,2,i,5.0,-0.7%,
COCc1cc(C)nc(OCC(=O)N/N=C/c2ccc(-c3cccc([N+](=O)[O-])c3)o2)c1C#N,.,4%,1,.,-9,-7,.,.,-1.0%,
SMILES,Hep lipid drop,P. falciparum M1AAP,TNAP activation fold,UTI89 phage lysis,WT yeast gro inh,WT yeast gro inh mutant strain,Myeloid diff 2,Myeloid diff 2 GFP+ MAC1+ %,CSM14.1 death rescue,others
CCn1c(NCc2cc(Br)ccc2NS(=O)(=O)c2ccc(C)cc2)nc2ccccc21,.,1%,1.4,0.8%,11,-15,i,0.4,-0.4%,
Cc1ccc(SCC(=O)Nc2ccc(N3CCN(c4ccccc4)CC3)c(F)c2)cc1,.,6%,1.1,-0.1%,-7,10,i,1.1,-0.9%,
COc1ccc(/C=N/N=C/c2ccc(OC)c(O)c2)cc1O,.,4%,1,0.4%,18,-5,i,1.4,-0.4%,
Clc1ccc(-c2ccnc(Oc3cc(Cl)ccc3Cl)n2)cc1,.,2%,0.9,0.7%,-16,53,i,0.6,4.4%,
COCCCNC(=O)CC(NS(=O)(=O)c1ccc(C)cc1)c1ccc(OC)cc1 (stereo unspecified),-5,7%,1,0.2%,9,14,i,7.6,1.4%,Hep lipid drop cells 6.5 µM=813
COc1cc(OC)nc(Oc2ccccc2C(=O)Oc2ccc(C)cc2)n1,.,-2%,1,0.0%,63,66,i,6.6,2.4%,
Cc1ccccc1OCC1Cn2c(nc3c2c(=O)[nH]c(=O)n3C)O1 (stereo unspecified),.,1%,1.1,0.0%,-7,-5,i,1.2,-2.8%,
CCCCN(CCCC)c1nc(OC)nc(-n2nnc(C(C)=O)c2C)n1,.,1%,1,-0.3%,14,3,i,0.5,7.1%,
O=C(Cc1cccs1)NNC(=S)NCc1ccc(Cl)cc1,.,-9%,1,-0.8%,0,3,i,1.2,-2.0%,
Cc1ccc(S(=O)(=O)N2CCN(c3nc(C)nc4sc5c(c34)CCC(C)C5)CC2)cc1 (stereo unspecified),.,-4%,1,.,18,20,.,.,3.4%,
c1ccc(CNc2ncnc3nc[nH]c23)cc1,8,2%,1.4,0.5%,1,-2,i,3.1,-0.2%,Hep lipid drop cells 6.5 µM=741
O=C(Nc1ccc(Cl)cc1)OCc1cn(-c2ccc(Cl)cc2)nn1,.,4%,1.1,0.9%,5,-30,i,0.8,-1.1%,
COc1ccc(OC)c(NC(=O)C(CC(=O)O)NCc2ccco2)c1 (stereo unspecified),.,3%,1.1,0.7%,3,6,i,0.0,-1.1%,
CCOC(=O)Cn1nc(C)n(-c2ccc(C(C)(C)C)cc2)c1=O,.,1%,1.1,0.8%,7,-13,i,0.6,0.5%,
CCCc1noc2c1/C(=N\O)CCC2,.,3%,1.1,2.0%,-3,-4,i,0.6,-0.2%,
O=C1Nc2cc(C(=O)N3CCOCC3)ccc2SC1N1CCOCC1 (stereo unspecified),.,5%,1.1,0.9%[50 µM],-8,-5,i,0.7,5.8%,
COc1cccc(Nc2ncc(C(=O)O)c3ccccc23)c1,.,10%,1.1,0.5%,-6,2,i,0.8,-2.4%,
CCCCCn1nc(-c2ccccc2)c2nc3ccccc3nc21,.,5%,1.1,0.3%,17,8,+,4.8*,0.9%,
O=S(=O)(c1cccc2nsnc12)N1CCN(c2ncccn2)CC1,-2,0%,0.9,0.5%,6,11,i,0.4,-0.6%,Hep lipid drop cells 6.5 µM=627
CCOc1ccccc1C(=O)N(Cc1cccs1)C1CCS(=O)(=O)C1 (stereo unspecified),.,8%,1.1,-0.3%,0,-10,i,1.0,-1.0%,
CCN(CC)C(=O)C(=O)N/N=C/c1cccs1,.,5%,1.1,-0.2%,8,12,.,.,0.1%,
Cc1ccc(OCCNC(=O)/C=C/c2ccc([N+](=O)[O-])cc2)cc1C,.,-2%,1,0.3%,17,8,i,0.5,-0.5%,
COc1cc(C2/C(=C(/O)c3ccc(F)cc3)C(=O)C(=O)N2CCCC(=O)O)ccc1O (stereo unspecified),.,4%,1,0.6%,2,-14,i,0.7,1.7%,
COCc1nnc(NC(=O)CSc2ccc(C)cc2)s1,.,0%,1.1,-0.1%,1,57,i,0.8,-0.1%,
Cc1ccc(NC(=O)c2ccc(S(=O)(=O)N3CCCCC3)cc2)cc1,.,0%,1.1,1.1%,14,10,i,6.6,-0.3%,

# Quoted at random: three entries already listed.
SMILES,Hep lipid drop,P. falciparum M1AAP,TNAP activation fold,UTI89 phage lysis,WT yeast gro inh,WT yeast gro inh mutant strain,Myeloid diff 2,Myeloid diff 2 GFP+ MAC1+ %,CSM14.1 death rescue,others
Cc1ccc(C(=O)C(OC(=O)CNC(=O)c2ccc(Cl)cc2)c2ccccc2)cc1 (stereo unspecified),.,6%,1,0.2%,17,1,i,0.7,-1.1%,
O=S(=O)(c1cccc2nsnc12)N1CCN(c2ncccn2)CC1,-2,0%,0.9,0.5%,6,11,i,0.4,-0.6%,Hep lipid drop cells 6.5 µM=627
O=C1Nc2cc(C(=O)N3CCOCC3)ccc2SC1N1CCOCC1 (stereo unspecified),.,5%,1.1,0.9%[50 µM],-8,-5,i,0.7,5.8%,

# Continuation.
SMILES,Hep lipid drop,P. falciparum M1AAP,TNAP activation fold,UTI89 phage lysis,WT yeast gro inh,WT yeast gro inh mutant strain,Myeloid diff 2,Myeloid diff 2 GFP+ MAC1+ %,CSM14.1 death rescue,others
CSc1ccc(S(=O)(=O)NCc2ccccc2Cl)cc1,-1,-2%,1.1,1.2%,14,35,i,6.3,2.7%,Hep lipid drop cells 6.5 µM=733
CCN(CC)CCN1C(=O)C(=O)/C(=C(/O)c2cccc(OC)c2)C1c1ccccn1 (stereo unspecified),.,8%,1.1,-1.0%,-2,6,i,0.8,2.3%,
Cc1ccc(CNC(=O)CCNC(=O)c2ccco2)cc1,.,1%,1,-0.1%,95*,4.9*,i,0.4,-1.9%,
O=C(NCC1CCCO1)C1CCN(S(=O)(=O)N2CCCC2)CC1 (stereo unspecified),.,0%,1.1,6.5%,11,-13,i,2.6,-0.5%,
CCc1ccc(NCCC(=O)c2ccc(Cl)cc2)cc1,.,5%,1,3.4%,-6,3,i,2.6,1.3%,
CCCc1nnc(NC(=O)C(CC)OC(=O)c2cc(C)nc3ccccc23)s1 (stereo unspecified),.,8%,1.1,-0.1%,23,12,i,0.7,-1.3%,
COc1ccc(CCNC(=O)c2cc(-c3cc(Cl)cc(Cl)c3)oc2C)cc1,.,2%,1.1,-0.2%,20,8,i,3.5,0.2%,
O=C(O)CCc1nn2c3ccccc3nc2n(CCN2CCCCC2)c1=O,.,0%,1,1.8%,-5,1,i,0.5,-0.7%,

# 3 compounds out of the list, arranged by SMILES length, low to high.
SMILES,Hep lipid drop,P. falciparum M1AAP,TNAP activation fold,UTI89 phage lysis,WT yeast gro inh,WT yeast gro inh mutant strain,Myeloid diff 2,Myeloid diff 2 GFP+ MAC1+ %,CSM14.1 death rescue,others
O=C1Nc2cc(C(=O)N3CCOCC3)ccc2SC1N1CCOCC1 (stereo unspecified),.,5%,1.1,0.9%[50 µM],-8,-5,i,0.7,5.8%,
COc1cc(OC)nc(Oc2ccccc2C(=O)Oc2ccc(C)cc2)n1,.,-2%,1,0.0%,63,66,i,6.6,2.4%,
COc1cc(C2/C(=C(/O)c3ccc(F)cc3)C(=O)C(=O)N2CCCC(=O)O)ccc1O (stereo unspecified),.,4%,1,0.6%,2,-14,i,0.7,1.7%,
